Bioassay records (PubChem BioAssay)
YjeE inh: YjeE (TsaE) inhibition, E. coli; purified YjeE, fluorescence polarisation of a bound ADP probe; P0AF67; actives 0.05% (n = 71,000); Potency, µM; active = well fitted falling curve; inconclusive = weaker or top-dose-only fall, or a rising curve; inactive = flat or poorly fitted curve;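 further: top concentration of the series not given in the record; excess ADP was the control for the full effect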
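Fluorescence polarization of a BODIPY Texas Red–ADP probe (2 uM) bound to purified YjeE (10 uM) was read after 15 min room-temperature incubation with compounds. Loss of polarization marks inhibitors; ADP serves as titrated control.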
Bst PK mod: pyruvate kinase (B. stearothermophilus) modulation; Potency, µM; partly purified Bacillus stearothermophilus pyruvate kinase, luminescence ATP production; ribose 5-phosphate activator present at AC10; actives 1.2% (n = 51,000); in the data active means potency below about 11 µM; inconclusive means mostly about 12 µM to 25 µM; inactive means weaker than that;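 the screen sought inhibitors and activators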;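 further: potency means the concentration at half of the fitted maximal effect; scaled between full activation by ribose 5 phosphate and full inhibition by luteolin; about four in five hits inhibit and the cells do not say which; series up to 57 µM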
* = called active by the depositor; i = inactive; ? = inconclusive; nt = not tested or not shown. These rows are one share of the data. The share of hits here may be higher or lower than overall.

Order of values: Bst PK mod | YjeE inh
COC(=O)c1ccccc1NC(=O)C1CCCN(S(=O)(=O)c2ccc(OC)cc2)C1 (stereo not given)
    >57 | i
Cc1ccc(F)c(NC=C2C(=O)OC(C)(C)OC2=O)c1
    nt | i
Nc1ncnc2c1ncn2C[C@@H](O)C(=O)O
    nt | i
Cn1c(=O)c(CCc2ccccc2)nc2cncnc21
    nt | i
CCOC(=O)N1CCC(Nc2c(Nc3ccc(C)c(C)c3)c(=O)c2=O)CC1
    >57 | i
C=CCN=C(CC)C1=C(O)CCCC1=O
    >57 | i
COCCn1c(=S)[nH]c2cc(C(=O)NCCCN3CCOCC3)ccc2c1=O
    >57 | i
COc1cccc(N2CCN(Cc3nc4ccccc4c(=O)[nH]3)CC2)c1
    >57 | i
COCCn1cnc2cc(C)c(C)cc21
    >57 | i
Fc1ccc(CNc2nc(-c3ccco3)cc(C(F)(F)F)n2)cc1
    >57 | i
Oc1cccc(O)c1
    nt | i
CCOC(=O)c1c(CN2CCCCC2)oc2ccc(O)cc12
    >57 | i
COc1ccc(C(=O)CSc2nnc(-c3cc(C)cc(C)c3)o2)cc1
    >57 | i
CC(=O)Nc1ccc2c(c1)nc(CCNC(=O)c1ccccc1)n2C
    >57 | i
CC(Oc1ccc(O)cc1)(P(=O)(O)O)P(=O)(O)O
    nt | i
CCCCn1c(/N=C/c2cc(OC)ccc2O)nc2ccccc21
    >57 | i
CCn1cc2c(c1-c1cccc(C)c1)c(=O)n(C)c(=O)n2C
    >57 | i
COc1cccc2c(=O)cc(C)n(CC(=O)Nc3ccc(C)c(C)c3)c12
    nt | i
COc1ccc(CCNC(=O)CSc2nc(O)c(CC(C)C)c(=O)[nH]2)cc1OC
    >57 | i
CC(NC(N)=O)C12CC3CC(CC(C3)C1)C2 (stereo not given)
    >57 | i
CC(=O)c1c(C)[nH]c(C(=O)Nc2ccc3c(c2)OCCO3)c1C
    i | i
CCSc1nnc(NC(=O)c2csc3c2CCCC3)s1
    >57 | i
CC(C)C(c1nnnn1Cc1ccc2c(c1)OCO2)N1CCN(c2ccccc2)CC1 (stereo not given)
    >57 | i
Cc1ccc(-c2cccc(NC(=O)C3C(C(=O)O)[C@@H]4C=C[C@H]3C4)c2)o1 (stereo not given in full)
    5.7* | i
CCCc1c(C)c2ccc(OCC(C)=O)cc2oc1=O
    >57 | i
Cc1cccc(CNc2cc(-c3ccccc3C)ncn2)c1
    nt | i
COc1cccc(/C=N/n2c(C)nc3ccccc32)c1OC
    ? | i
CCOC(=O)NCc1ccc(CNC(=O)OCC)cc1
    nt | i
BrC/C=C/CBr
    nt | i
NC(=O)NC(Cc1ccccc1)c1ccccc1 (stereo not given)
    nt | i
COc1ccc(OC)c(NC(=O)c2nnn(Cc3ccccc3C)c2N)c1
    >57 | i
COc1ccc(S(=O)(=O)N2CCCCC2)cc1Br
    >57 | i
O=C(NCc1ccco1)C(Cc1ccccc1)N1C(=O)c2ccccc2C1=O (stereo not given)
    nt | i
CCCCCc1nnc(NC(=O)CS(=O)(=O)Cc2ccccc2)s1
    >57 | i
c1ccc(-c2nnc3sc(CN4CCC5(CC4)OCCO5)cn23)cc1
    >57 | i
Cc1nc2ccccc2c2oc(C(=O)NCC3COc4ccccc4O3)cc12 (stereo not given)
    nt | i
COC(=O)C1CCN(C(=O)Cc2ccc(OC)c(OC)c2)CC1
    >57 | i
C=CCOc1ccccc1/C=c1\sc2nc(=O)c(C)nn2c1=O
    >57 | i
CCn1c(CSc2nc3ccccc3[nH]2)n[nH]c1=S
    >57 | i
COC(=O)c1c(=O)n(O)c2ccc(OC)cc2[n+]1[O-]
    >57 | i

Ordered by SMILES length (falling): three of the compounds above
Order of values: Bst PK mod | YjeE inh
COC(=O)c1ccccc1NC(=O)C1CCCN(S(=O)(=O)c2ccc(OC)cc2)C1 (stereo not given)
    >57 | i
C=CCOc1ccccc1/C=c1\sc2nc(=O)c(C)nn2c1=O
    >57 | i
CCn1c(CSc2nc3ccccc3[nH]2)n[nH]c1=S
    >57 | i

New compounds follow:
Order of values: Bst PK mod | YjeE inh
Cn1c(CSCc2ccc(Cl)c(Cl)c2)nnc1SCC(=O)Nc1nccs1
    >57 | i
CCOc1cc(CN2CCSCC2)ccc1O
    nt | i
CCC(=O)OCC(=O)[C@@]1(OC(=O)CC)[C@H](C)C[C@@H]2[C@H]3CCC4=CC(=O)C=C[C@]4(C)[C@]3(Cl)[C@@H](O)C[C@@]21C
    nt | i
Cc1nnc(SCC(=O)N2CCN(S(=O)(=O)c3ccccc3)CC2)[nH]c1=O
    >57 | i
Cc1ccc(-c2nc(CSCC(=O)NCCCN3CCOCC3)c(C)o2)cc1
    >57 | i
Cc1ccc(C)c(NC(=O)C(Sc2nncn2C)c2ccccc2)c1 (stereo not given)
    >57 | i
Cc1ccc(N)c(C(=O)CCCCC(=O)O)c1
    >57 | i
O=C(NCc1ccco1)c1csc(Nc2ccccc2Cl)n1
    >57 | i
COc1ccc(C(=O)Cn2nnc(-c3ccccc3-n3cnnn3)n2)cc1
    4.2* | i
CN(C)/C=C(\C#N)c1nc2ccccc2[nH]1
    >57 | i
CCn1c(SCc2ccccc2)nnc1-c1cccs1
    >57 | i
CCOc1ccc(NS(=O)(=O)c2ccc3[nH]cc(C(=O)N(CC)CC)c(=O)c3c2)cc1
    ? | i
CCOC(=O)c1[nH]c2ccccc2c1NC(=O)c1ccc(Br)o1
    >57 | i
Cc1ccc(CSc2nnc(-c3ccc(S(=O)(=O)N4CCCC4)cc3)o2)cc1
    >57 | i
O=C(OCn1nnc2ccccc2c1=O)c1cccs1
    nt | i
O=C(NCCCN1CCCC1=O)c1ccccc1NS(=O)(=O)c1ccc(F)cc1
    >57 | i
O=C(Nc1cccc(F)c1)N1CCC2(CCNCC2)CC1
    nt | i
COc1ccc(C2=CC(c3cccc(OC)c3)n3nnnc3N2)cc1 (stereo not given)
    >26 | nt
N#C/C(=C/c1ccc(N2CCCCCC2)o1)c1ccc(F)cc1
    nt | i
Cc1cccc(-n2c(Cc3ccccc3)nnc2SCC(=O)N2CCOCC2)c1
    >57 | i
CCOC(=O)c1cc2c(C(F)(F)F)cc(-c3cccnc3)nc2o1
    >57 | i
CCOC(=O)c1[nH]c(C)c(C(=O)N2CCN(C(=O)c3ccco3)CC2)c1C
    >57 | i
CCNc1ncc2nc(C)c(=O)n(-c3ccc(OC)cc3)c2n1
    nt | i
O=C(CSc1ccc2nnc(-c3ccccn3)n2n1)NCc1ccc2c(c1)OCO2
    nt | i
CC(C)c1ccc(O)c(O)c(=O)c1 (tested in a mixture with another compound)
    nt | i
O=C(C1CCCCC1)N1CCCC(c2nc(-c3ccc(F)cc3)no2)C1 (stereo not given)
    >57 | i
CN(CC(=O)NCc1ccc(F)cc1)S(=O)(=O)c1cccc2nsnc12
    >57 | ?
Cc1ccc(S(=O)(=O)NCc2ccco2)c(C)c1C
    ? | i
CC(=O)c1c(O)cc(C)n(Nc2nc(C)cc(C)n2)c1=O
    >57 | i
NC(=O)C1CCN(C(=O)c2cnn(-c3ccccc3)c2NC(=O)c2ccco2)CC1
    nt | i
COCCn1c(SCC(=O)NCC2CCCO2)nc2c(c1=O)SC(C)C2 (stereo not given)
    nt | i
COc1ccc(S(=O)(=O)N2CCCC(C(=O)Nc3cccc(C(C)=O)c3)C2)cc1 (stereo not given)
    nt | i
CCOC(=O)CN(C(=O)CSc1nnc(-c2ccc(OC)c(OC)c2)o1)c1ccccc1
    >57 | i
Cc1cccc(NC(=O)CSc2nnc(Cn3nnc(-c4ccccc4)n3)n2-c2ccccc2)c1
    >57 | i
O=C(O)c1ccccc1SCC(=O)N1CCCCC1
    nt | i
COc1ccc(-n2c(Cc3cccn3C)nnc2SCC(=O)N2CCCc3ccccc32)cc1
    >57 | i
O=C(c1cccnc1)N1CCN(C(=O)c2ccccc2F)CC1
    nt | i
C[C@H](N)CCCC(C)(C)O
    nt | i
O=C(Oc1ccc2c(c1)OCO2)c1ccc(F)cc1Cl
    nt | i
CCCCOc1ccccc1NC(=O)c1ccco1
    nt | i
CC(C)C(C)(C#N)NC(=O)CSc1nc2scc(-c3ccco3)c2c(=O)n1-c1ccccc1 (stereo not given)
    >57 | i
CC1(C)CC(N=C=O)CC(C)(CN=C=O)C1 (stereo not given)
    nt | i
CC(=O)Nc1ccc(S(=O)(=O)NCCSc2ccccn2)cc1
    >57 | i
COc1ccc(CCNC(=O)c2nonc2N)cc1OC
    >57 | i
CC(=O)C1=C(O)C(=O)N(C)C1c1ccccc1F (stereo not given)
    nt | i
COc1ccc(C2C(C(=O)N3CCCC3)c3cc(OC)c(OC)cc3C(=O)N2C)cc1 (stereo not given)
    >57 | i
COCC(=O)N1CCC2(CCCN(Cc3cc(C(F)(F)F)cc(C(F)(F)F)c3)C2)CC1
    nt | i
CCc1c(C)c(C#N)c2nc3ccccc3n2c1-n1nc(C)cc1C
    >26 | nt
CC(C)NS(=O)(=O)c1ccc(OCC(=O)NCc2ccccc2)cc1
    >57 | i
CCSC1=C(C#N)C2(CCCCC2)C(C#N)C(=O)N1 (stereo not given)
    nt | i

The last 2 entries of the part before lead into the next.
Order of values: Bst PK mod | YjeE inh
CC(C)NS(=O)(=O)c1ccc(OCC(=O)NCc2ccccc2)cc1
    >57 | i
CCSC1=C(C#N)C2(CCCCC2)C(C#N)C(=O)N1 (stereo not given)
    nt | i
O=C(NCC(=O)N(c1cnc2ccccc2c1)C(C(=O)NC1CCCC1)c1ccncc1)c1ccco1 (stereo not given)
    >57 | i
CCOC(=O)C1CCN(c2cc(=O)n(Cc3ccc(F)cc3)c(=O)[nH]2)CC1
    nt | i
COCCNC(=O)C(c1ccc(C)cc1)N(C(=O)CCC(=O)Nc1ccccn1)C1CCCC1 (stereo not given)
    >57 | i
O=C1c2oc3ccccc3c(=O)c2C(c2cccc(F)c2)N1CCCO (stereo not given)
    >57 | i
CCCNC(=O)NCCc1ccncc1
    >57 | i
COCC(=O)NCc1ccc2c(c1)OCO2
    nt | i
COC(=O)c1cc(OC)c(OC)cc1NC(=O)c1c(-c2ccccc2Cl)noc1C
    nt | i
Nn1c(Nc2ccccc2)nc2ccccc2c1=O
    nt | i
Clc1ccc(OCc2nc(-c3ccncc3)no2)c(Br)c1
    nt | i
Cc1cnc(CNc2ccnc(-c3ccccc3C(F)(F)F)n2)cn1
    nt | i
Cc1cc(NC(=O)CSc2nnc3c(C)cc4ccccc4n23)no1
    nt | i
Cc1nc2cnc(N(C)C)nc2n(CCC#N)c1=O
    nt | i
Cc1ccc(C)n1CCN1CCN(CC(=O)Nc2cc(C(F)(F)F)ccc2Cl)CC1
    >57 | i
CCOC(=O)CSc1nc2cc(C(=O)NCc3ccco3)ccc2c(=O)n1C1CCCCC1
    >57 | i
CCN(CC)S(=O)(=O)c1ccc(C(=O)Nc2ccc(OCC(=O)N3CCOCC3)cc2)cc1
    nt | i
S=c1[nH]ncn1-c1ccccn1
    >57 | i
COc1ccc(Cl)c(Cn2c(NCCCN(C)C)nc3c2c(=O)n(C)c(=O)n3C)c1
    >57 | i
CCOC(=O)c1c(C)[nH]c(C(=O)OCC(=O)N2CC(C)OC(C)C2)c1C (stereo not given)
    >57 | i
O=C(COc1ccc2ccccc2c1CN1CCOCC1)N1CCc2ccccc21
    >57 | i
CCOC(=O)CSc1nnc(NC(=O)c2cccc(S(=O)(=O)N3CCCC3)c2)s1
    >57 | i
CCCNc1ncnc2sc(C)c(C)c12
    nt | i
CC1(C)[C@@H]2CC[C@@]1(C)C(=O)C2
    nt | i
O=C(c1cc2ccccc2o1)N1CCN(c2ccccc2Cl)CC1
    i | i
CCSc1nnc(-c2ccc(S(=O)(=O)N3CCCC3)cc2)n1C
    >57 | i
CSc1ccccc1NC(=O)c1ccco1
    >57 | i
COCCCNc1ncnc2nc[nH]c12
    nt | i
Cn1c(SCc2nc3ccccc3s2)nnc1-c1ccc2c(c1)OCO2
    >57 | i
Cn1c(=O)[nH]c(=O)c2c1nc(CN1CCOCC1)n2CCCO
    >57 | i
CCOC(=O)Cn1c(N)c(C(=O)OC)sc1=S
    >57 | i
COc1ccc(OCC(=O)Nc2ccc(S(=O)(=O)N3CCCCCC3)cc2)cc1
    >57 | i
Cc1nnc(SCCn2c(N3CCC(C)CC3)nc3c2c(=O)[nH]c(=O)n3C)s1
    >57 | i
COc1ccc2nc(SCC(=O)N3CCNC3=O)[nH]c2c1
    nt | i
CC(C(=O)Nc1cc(C(F)(F)F)ccc1N1CCOCC1)N1C(=O)C2CC=CCC2C1=O (stereo not given)
    >57 | i
Nc1cc(-c2cccc(F)c2)nn1S(=O)(=O)c1cccc2nsnc12
    nt | i
CCCn1c(-c2ccc(F)cc2)nc2c(NCCCN(CCO)CCO)nc(C)nc21
    nt | i
CC(C)CCn1c(N2CCN(Cc3ccccc3)CC2)nc2c1c(=O)[nH]c(=O)n2C
    >57 | i
Cc1cccc(S(=O)(=O)NCCC(=O)OC(C)C(=O)NC(=O)NC2CCCCC2)c1 (stereo not given)
    >57 | i
c1ccc2c(c1)sc1nnnn12
    >57 | i
CCOc1ccc(C2N(c3ccc(OC)cc3)C(=O)C3CCCN32)cc1OC (stereo not given)
    nt | i
CC(C)c1ccc(OCC(O)CN2CCN(c3ccccc3)CC2)cc1 (stereo not given)
    >57 | i
O=c1c2ccccc2nnn1CSc1nnc(C2COc3ccccc3O2)n1-c1ccccc1 (stereo not given)
    >57 | i
N#Cc1cccc(-c2ccc3ncnc(N4CCNCC4)c3c2)c1
    nt | i
